Bioassay records (PubChem BioAssay)
VACV mCherry inh = vaccinia inhibition (mCherry reporter); 0.63% of 310,000 active; Vaccinia virus mCherry reporter infection, fluorescence; about a quarter of the inactives have no number; Potency, µM (top dose mostly 36.5 µM), inactives show top-dose activity change, negative = inhibition, most hits filed as inhibitors; AID 720579; active = well fitted inhibition curve with a large enough effect; inconclusive = small, poorly fitted or top-dose-only effect; inactive = no such curve, though single readings can be large or run the other way; tested in A549 cells; note: nearly all actives have a fitted effect of over 35% in size; inactives centre near -10
VACV Venus inh = vaccinia inhibition (Venus reporter) | Potency, µM (top dose mostly 36.5 µM), for inactives: top-dose activity change, negative = inhibition, usual class: inhibitors | Vaccinia virus Venus reporter expression, fluorescence | 0.46% of 330,000 active; active means well fitted inhibition curve with a large enough effect; inconclusive means small, poorly fitted or top-dose-only effect; inactive means no such curve, though single readings can be large or run the other way; tested in A549 cells; note: nearly all actives have a fitted effect of over 30% in size; inactives centre near -10
An asterisk follows results filed as active; & = joins results of further samples; [ ] = another dose, or the depositor's remark. % is set by controls: 0 for no effect and ±100 for the full control effect; potency is the fitted concentration of half-maximal effect.

How did CN1CCN(c2cc(=O)n(-c3ccc(Cl)cc3)c(=O)[nH]2)CC1 do in these assays?
VACV mCherry inh: 4%; VACV Venus inh: 5%

Results for COc1cc(C(C)=O)ccc1Oc1cnccn1 ?
VACV mCherry inh: -7%; VACV Venus inh: -6%

What do the screens show for `O=C(CSc1nc2c([nH]c3ccccc32)c(=O)n1-c1ccc(F)cc1)NCc1ccco1`?
VACV mCherry inh: -4%; VACV Venus inh: -9%&-1%

Results for Oc1c(CN2CCOCC2)ccc(CN2CCOCC2)c1O ?
VACV mCherry inh: -19%; VACV Venus inh: -4%

Results for FC(F)(F)c1cc(Cl)c2nc(-c3ccccc3)c(Cc3cccc(Cl)c3)n2c1 ?
VACV mCherry inh: 15%; VACV Venus inh: 5%

What do the screens show for `CCCCOc1ccccc1-c1ccccc1CN1[C@@H](C(C)C)COCCS1(=O)=O`?
VACV mCherry inh: -2%; VACV Venus inh: -24%

How did O=C(NC1CCCc2ccccc21)C1CCN(S(=O)(=O)N2CCCCCC2)CC1 (stereo not given) do in these assays?
VACV mCherry inh: inactive; VACV Venus inh: -26%

Results for O=C(Nc1cccc(NC(=O)c2cccc(F)c2)n1)c1cccc(F)c1 ?
VACV mCherry inh: -20%; VACV Venus inh: -10%

Results for CCCc1ccc2oc(C(=O)N(Cc3ccncc3)CC3CCCO3)c(C)c2c1 (stereo not given) ?
VACV mCherry inh: inactive; VACV Venus inh: -9%

Results for CC(C)c1cc(C(C)C)c(S(=O)(=O)N2CCNCC2)c(C(C)C)c1 ?
VACV mCherry inh: inconclusive; VACV Venus inh: -5%

How did C=C1CSc2nc3ccccc3c(=O)n21 do in these assays?
VACV Venus inh: -9%

Results for COc1ccc(C(=O)NC2CC(=O)N(c3ccc4c(c3)OCCO4)C2)cc1 (stereo not given) ?
VACV mCherry inh: 1%; VACV Venus inh: -7%

How did O=C(CN1CCN(S(=O)(=O)N2CCOCC2)CC1)Nc1cc(Cl)cc(Cl)c1 do in these assays?
VACV mCherry inh: -22%; VACV Venus inh: -19%

What do the screens show for `CCN(CC(=O)NCc1cccs1)S(=O)(=O)c1ccc(F)cc1`?
VACV mCherry inh: -1%; VACV Venus inh: -2%

Results for CCOc1ccc(-c2nn(-c3ccccc3)cc2/C=C2\SC(=S)N(Cc3ccco3)C2=O)cc1 ?
VACV mCherry inh: inactive; VACV Venus inh: -14%

Results for CCCOc1ccc(N2C(=O)CC(N(Cc3ccccc3)N=O)C2=O)cc1 (stereo not given) ?
VACV mCherry inh: -3%; VACV Venus inh: -16%

Results for Cc1c(Br)c([N+](=O)[O-])nn1CC(=O)Nc1sc2c(c1C(=O)OC(C)C)CCC(C)C2 (stereo not given) ?
VACV mCherry inh: -1%; VACV Venus inh: -8%

How did C#CCOCCOCCOCCNc1nc(N2CCN(C(=O)[C@H]([C@@H](C)CC)n3cc([C@@H](N)Cc4ccc(O)cc4)nn3)CC2)nc(N2CCN(C(=O)[C@H]([C@@H](C)CC)n3cc([C@@H](N)CC(C)C)nn3)CC2)n1 do in these assays?
VACV mCherry inh: inactive; VACV Venus inh: -15%

What do the screens show for `Cc1ccccc1NC(=S)Nc1cccc([N+](=O)[O-])c1`?
VACV Venus inh: -10%

What do the screens show for `CCOC(=O)CC(=O)Nc1cc2ccc(OC)c(OC)c2cc1C(=O)OCC`?
VACV mCherry inh: inconclusive; VACV Venus inh: inconclusive

How did O=C(COc1ccc(Cl)cc1)Nc1ccc(C(=O)O)cc1NC(=O)COc1ccc(Cl)cc1 do in these assays?
VACV mCherry inh: -8%; VACV Venus inh: -4%

Results for CCOc1ccc(N(C)Cc2cc(=O)oc3ccc(OC)cc23)cc1 ?
VACV mCherry inh: inconclusive; VACV Venus inh: 5%

What do the screens show for `CN1CCN(C(=O)C23CCC(C)(C(=O)C2Br)C3(C)C)CC1` (stereo not given)?
VACV mCherry inh: inactive; VACV Venus inh: -7%

Results for C/C(=N\NC(=O)Cc1ccccc1)c1cccs1 ?
VACV mCherry inh: -26%; VACV Venus inh: -7%

How did O=C(/C=C/c1ccccc1)N/C(=C/c1ccccc1)C(=O)NCCCO do in these assays?
VACV mCherry inh: inactive; VACV Venus inh: -8%

What do the screens show for `Cc1cccc(C)c1NC(=S)N(CCCN1CCN(C)CC1)Cc1cccs1`?
VACV mCherry inh: inactive; VACV Venus inh: -13%

Results for C1CCN(CCCNC2C3CC4CC(C3)CC2C4)C1 (stereo not given) ?
VACV mCherry inh: inactive; VACV Venus inh: -15%

Results for O=C(N/N=C/c1ccccc1)c1cc(=O)[nH]c2ccccc12 ?
VACV mCherry inh: -8%; VACV Venus inh: -11%

How did Cc1cc(OCC(=O)Nc2ccc(S(=O)(=O)N3CCN(C)CC3)cc2)cc(C)c1Cl do in these assays?
VACV mCherry inh: -30%; VACV Venus inh: -24%

Results for CCN1C(=O)[C@H]2[C@H]3CN=C(SCC4CC4)N3[C@@](CC)(C(=O)OC)[C@H]2C1=O ?
VACV mCherry inh: inactive; VACV Venus inh: -11%

Results for Cc1cc(NC(=O)CSCC(=O)N(C)Cc2ccc(Cl)cc2Cl)no1 ?
VACV mCherry inh: -28%; VACV Venus inh: -29%

Results for O=C(Nc1c(C(=O)N2CCN(c3ccccc3F)CC2)oc2ccccc12)c1cccc(F)c1 ?
VACV mCherry inh: -16%; VACV Venus inh: 0%

Results for CCC(C(=O)NCCCN1CCN(C)CC1)n1nc(C)c2sc3ccccc3c2c1=O (stereo not given) ?
VACV mCherry inh: inactive[7.34 µM]; VACV Venus inh: 0%[7.34 µM]

How did Cc1cccc(OC(=O)c2cc(-c3ccc4c(c3)OCCO4)on2)c1 do in these assays?
VACV mCherry inh: -19%; VACV Venus inh: -1%

What do the screens show for `CCOc1ccc(CCNC(=O)C2CCCN(c3nn4c(=O)cc(C)nc4s3)C2)cc1OCC` (stereo not given)?
VACV Venus inh: -12%

Results for CCOC(=O)CN(C(=O)COc1nc(-c2ccccc2)cc(C)c1C#N)c1ccccc1 ?
VACV mCherry inh: -3%; VACV Venus inh: -12%

How did Cc1cc(N2CCN(S(=O)(=O)c3ccccc3)CC2)nc2c(C)cccc12 do in these assays?
VACV mCherry inh: -11%; VACV Venus inh: -16%

Results for Cc1cc(C)cc(C(=O)NC(CC(N)=O)c2ccc(NCC3CC3)c([N+](=O)[O-])c2)c1 (stereo not given) ?
VACV mCherry inh: inactive; VACV Venus inh: -1%

What do the screens show for `COC(=O)Cn1c(=O)c2c(nc3n2CCCN3Cc2ccccc2)n(C)c1=O`?
VACV mCherry inh: -3%; VACV Venus inh: -4%

How did O=C(Cc1ccc([N+](=O)[O-])cc1)NCc1ccccn1 do in these assays?
VACV mCherry inh: -3%; VACV Venus inh: -12%

Results for CN1CCC(=NNC(=O)c2ccc(N(Cc3ccccc3Cl)S(C)(=O)=O)cc2)CC1 ?
VACV mCherry inh: inactive; VACV Venus inh: -14%

What do the screens show for `Cc1cccc(NC(=S)N2CCCC2)c1`?
VACV mCherry inh: inactive; VACV Venus inh: -3%

How did Nc1nc(SCC(=O)NC2CCCCC2)[nH]c(=O)c1-c1ccccc1 do in these assays?
VACV mCherry inh: -12%; VACV Venus inh: -8%

Results for N/C(=N\c1nc2c(c(=O)[nH]1)CCC2)Nc1ccccc1C(F)(F)F ?
VACV mCherry inh: -17%; VACV Venus inh: -14%

How did COc1ccc(Nc2oc(-c3cccs3)nc2C#N)cc1 do in these assays?
VACV Venus inh: -22%

Quoted from the results shown (twelve entries):
Results for O=C(Nc1c(C(=O)N2CCN(c3ccccc3F)CC2)oc2ccccc12)c1cccc(F)c1 ?
VACV mCherry inh: -16%; VACV Venus inh: 0%

Results for CCC(C(=O)NCCCN1CCN(C)CC1)n1nc(C)c2sc3ccccc3c2c1=O (stereo not given) ?
VACV mCherry inh: inactive[7.34 µM]; VACV Venus inh: 0%[7.34 µM]

How did Cc1cccc(OC(=O)c2cc(-c3ccc4c(c3)OCCO4)on2)c1 do in these assays?
VACV mCherry inh: -19%; VACV Venus inh: -1%

What do the screens show for `CCOc1ccc(CCNC(=O)C2CCCN(c3nn4c(=O)cc(C)nc4s3)C2)cc1OCC` (stereo not given)?
VACV Venus inh: -12%

Results for CCOC(=O)CN(C(=O)COc1nc(-c2ccccc2)cc(C)c1C#N)c1ccccc1 ?
VACV mCherry inh: -3%; VACV Venus inh: -12%

How did Cc1cc(N2CCN(S(=O)(=O)c3ccccc3)CC2)nc2c(C)cccc12 do in these assays?
VACV mCherry inh: -11%; VACV Venus inh: -16%

Results for Cc1cc(C)cc(C(=O)NC(CC(N)=O)c2ccc(NCC3CC3)c([N+](=O)[O-])c2)c1 (stereo not given) ?
VACV mCherry inh: inactive; VACV Venus inh: -1%

What do the screens show for `COC(=O)Cn1c(=O)c2c(nc3n2CCCN3Cc2ccccc2)n(C)c1=O`?
VACV mCherry inh: -3%; VACV Venus inh: -4%

How did O=C(Cc1ccc([N+](=O)[O-])cc1)NCc1ccccn1 do in these assays?
VACV mCherry inh: -3%; VACV Venus inh: -12%

Results for CN1CCC(=NNC(=O)c2ccc(N(Cc3ccccc3Cl)S(C)(=O)=O)cc2)CC1 ?
VACV mCherry inh: inactive; VACV Venus inh: -14%

What do the screens show for `Cc1cccc(NC(=S)N2CCCC2)c1`?
VACV mCherry inh: inactive; VACV Venus inh: -3%

How did Nc1nc(SCC(=O)NC2CCCCC2)[nH]c(=O)c1-c1ccccc1 do in these assays?
VACV mCherry inh: -12%; VACV Venus inh: -8%

The list goes on.
Results for COc1ccc(NC(=O)Cn2c(=O)n(CCC(=O)NCC3CCCO3)c(=O)c3cc(OC)c(OC)cc32)cc1 (stereo not given) ?
VACV mCherry inh: -13%&-3%; VACV Venus inh: -10%&1%

What do the screens show for `CCCSCCCNC(=O)c1ccc2c(c1)nc1n2CCCCC1`?
VACV mCherry inh: -10%; VACV Venus inh: -9%

What do the screens show for `CCOC(=O)N1CCN(CCC(=O)Nc2cc(C)ccc2C)CC1`?
VACV mCherry inh: -7%; VACV Venus inh: 6%

How did CCOC(=O)C1CCN(C(=O)Cn2c(=O)oc3cc(S(=O)(=O)N4CCCC4)ccc32)CC1 do in these assays?
VACV mCherry inh: -25%; VACV Venus inh: -11%

How did O=C(OCc1ccccc1)c1ccccc1 do in these assays?
VACV mCherry inh: 0%&-17%; VACV Venus inh: 5%&-9%

How did O=C(NC(Cc1ccccc1)C(=O)O)c1ccco1 (stereo not given) do in these assays?
VACV mCherry inh: -9%; VACV Venus inh: -8%

What do the screens show for `CC(OC(=O)c1ccc2ccccc2n1)C(=O)c1ccccc1` (stereo not given)?
VACV mCherry inh: -12%; VACV Venus inh: -7%

How did O=C(Nc1ccc(Br)cc1F)c1cc(S(=O)(=O)NC2CCCCC2)ccc1F do in these assays?
VACV mCherry inh: inactive; VACV Venus inh: -16%

Results for CC(=O)NC(c1ccc(C(C)C)cc1)c1ccc2cccnc2c1O (stereo not given) ?
VACV mCherry inh: inconclusive; VACV Venus inh: inconclusive

How did CCC1(C)Cc2ccccc2-c2nc(NCCO)[nH]c(=O)c21 (stereo not given) do in these assays?
VACV Venus inh: -14%

How did Cc1ccc(Nc2cc(C)nc(N3CCOCC3)n2)c(C)c1 do in these assays?
VACV mCherry inh: -3%; VACV Venus inh: -17%

How did Cn1c(=O)n(CC(=O)N2CCOCC2)c2ccccc21 do in these assays?
VACV mCherry inh: -23%; VACV Venus inh: -8%

What do the screens show for `CCOC(=O)c1ccc(N2C(=O)c3n[nH]c(-c4ccco4)c3C2c2ccc(F)cc2)cc1` (stereo not given)?
VACV mCherry inh: -25%; VACV Venus inh: -12%

Results for O=C(CCc1ccccc1)N1CCN(C(=O)CCc2ccccc2)CC1 ?
VACV mCherry inh: inactive; VACV Venus inh: -6%

What do the screens show for `COc1cccc(CNC(=O)C2CCN(S(=O)(=O)c3cccc4nonc34)CC2)c1`?
VACV mCherry inh: inconclusive; VACV Venus inh: -21%

What do the screens show for `CCCNc1[nH]c(=O)n(C)c(=O)c1N=O`?
VACV mCherry inh: -28%; VACV Venus inh: -24%

Results for O=C1N[C@@H](c2ccccc2)COC(=O)[C@@H](Cc2ccc(F)cc2)CC/C=C/C[C@H]1CC(=O)N(CCO)Cc1ccccc1 ?
VACV mCherry inh: -10%; VACV Venus inh: 0%

How did CCOc1ccc(N/C=C/C(=O)c2ccc(OC)cc2)c([N+](=O)[O-])c1 do in these assays?
VACV mCherry inh: -7%; VACV Venus inh: -11%

What do the screens show for `CC(C)(C)OC(=O)N1CCC(c2c(C(=O)NCCN3CCC(Cc4ccccc4)CC3)cnn2-c2ccccc2)CC1`?
VACV mCherry inh: inconclusive; VACV Venus inh: 11µM*

Results for CCN(CC)S(=O)(=O)c1cccc(NC(=O)CCSc2ccc(Cl)cc2)c1 ?
VACV mCherry inh: inconclusive; VACV Venus inh: inconclusive

How did COC(=O)c1ccc(N2C(c3cc(OC)cc(OC)c3)=Cc3ccc(-c4ccc(C(N)=O)cc4)cc3C2CC(=O)C2CC2)cc1 (stereo not given) do in these assays?
VACV mCherry inh: -14%; VACV Venus inh: -15%

Results for CCc1nc(SCC(=O)Nc2cc(C)on2)c2c(C)c(C)sc2n1 ?
VACV Venus inh: -8%

What do the screens show for `C=CCSc1nnc(CCCCCN2C(=O)c3cccc4cccc(c34)C2=O)o1`?
VACV mCherry inh: inactive; VACV Venus inh: -5%

Results for Cc1ccc2c(c1)N(CC(=O)c1cccc(Cl)c1)C(=O)C(C)O2 (stereo not given) ?
VACV mCherry inh: -8%; VACV Venus inh: -1%

How did Cc1ccc(NCC(=O)N=Nc2c(O)n(C)c3ccccc23)cc1 do in these assays?
VACV mCherry inh: -17%; VACV Venus inh: -17%

How did Brc1ccc(-c2nnc3c4ccccc4nc(N4CCOCC4)n23)cc1 do in these assays?
VACV mCherry inh: 0%; VACV Venus inh: -3%
